GIV Gai3 FP: blocks GIV peptide binding to rat Galpha-i3. P08753. Galpha-i3/FITC-GIV peptide fluorescence polarization, 90 min; active compounds read low; scaled: aluminum fluoride 0%, vehicle 100%. percent of control (FP), % (no concentration beside the values). 210,000 tested, 0.42% active;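 active = replicate mean at 85% of control or lower, very high polarization wells dropped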;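 note: wells of about 15 µL received 100 nL stock; the first replicate is given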
Target sequence (P08753 whole entry, looked up): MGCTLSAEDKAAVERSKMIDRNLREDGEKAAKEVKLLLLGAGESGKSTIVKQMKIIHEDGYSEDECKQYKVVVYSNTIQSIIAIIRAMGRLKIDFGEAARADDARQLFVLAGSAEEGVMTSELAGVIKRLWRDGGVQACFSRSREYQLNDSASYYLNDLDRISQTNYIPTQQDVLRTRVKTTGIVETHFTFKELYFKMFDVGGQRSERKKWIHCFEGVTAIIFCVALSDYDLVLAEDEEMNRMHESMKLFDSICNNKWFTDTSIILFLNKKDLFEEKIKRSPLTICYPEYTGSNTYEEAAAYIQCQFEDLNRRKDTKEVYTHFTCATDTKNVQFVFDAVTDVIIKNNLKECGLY
Sa growth inh: blocks Staphylococcus aureus growth; relative growth, % (concentration not given with the values); S. aureus RN4220 growth, OD600, 20 h, 42 °C; active compounds read low; 170,000 tested, 0.53% active;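 active = growth at 42 °C up to 50% and 20 or more points under that at 30 °C, or under 10% at both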;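 note: 300 nL library stock went into each well; scaled to the means of positive and negative controls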
HCMV UL50-53 inh: disrupts HCMV UL50-UL53 complex binding; HTRF UL50-UL53 interaction, normalized percent inhibition; inhibition, % (concentration not given with the values); 190,000 tested, 0.15% active; AID 1918969;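 active = both replicates at 50% or more, plus weaker picks with an unusually low signal ratio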;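 note: stock transfer was 100 nL into about 20 µL; 0% = negative control wells and 100% = wells with untagged competitor protein; inactives centre near -12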
Sa growth inh second temp: recorded beside Sa growth inh, whose call it bears; relative growth, %; measured here: growth at 30 °C;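 optical density after 20 h as mean of two plates; 100% = untreated growth and lower means inhibition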
Numbers without * were called inactive.

What do the screens show for `O=C(CSc1nc(-c2ccc3c(c2)OCO3)nc2cc(=O)[nH]n12)NCC1CCCO1` (stereo not drawn)?
GIV Gai3 FP: 97.3; HCMV UL50-53 inh: -27.9

How did CN1CCN(CCNC(=O)CN2C(=O)COc3ccc(C(=O)N4CCCC4)cc32)CC1 do in these assays?
GIV Gai3 FP: 101.9; HCMV UL50-53 inh: -27.5

How did CCC(Oc1ccc(F)cc1)C(=O)NCc1csc(-c2ccc(OC)cc2)n1 (stereo not drawn) do in these assays?
GIV Gai3 FP: 100.1; HCMV UL50-53 inh: -15.0

What do the screens show for `CC(=O)NS(=O)(=O)c1ccc(NC(=O)c2cn3ccccc3n2)cc1`?
Sa growth inh: 112.2; HCMV UL50-53 inh: 6.4; Sa growth inh second temp: 96.3

What do the screens show for `CCCn1cc(S(=O)(=O)c2ccc(C)cc2)c(=O)c2cc(OC)c(OC)cc21`?
GIV Gai3 FP: 111.5; Sa growth inh: 102.5; HCMV UL50-53 inh: -34.9; Sa growth inh second temp: 81.4

Results for O=C1NCCc2c1[nH]c1c(Cl)ccc(Cl)c21 ?
GIV Gai3 FP: 104.9; HCMV UL50-53 inh: -27.1

How did O=C(COCc1cc(-c2ccc(F)cc2)on1)Nc1ccc(F)cc1F do in these assays?
GIV Gai3 FP: 99.2; Sa growth inh: 91.7; Sa growth inh second temp: 70.8

What do the screens show for `CC(=O)Nc1ccc(S(=O)(=O)N[C@@H](C)C(=O)N2CCN(C/C=C/c3ccccc3)CC2)cc1`?
Sa growth inh: 83.3; HCMV UL50-53 inh: 0.0; Sa growth inh second temp: 97.0

Results for CCOc1cc(Br)c(C2C(C(=O)OC)=C(C)NC3=C2C(=O)c2ccccc23)cc1OCC (stereo not drawn) ?
GIV Gai3 FP: 107.7; Sa growth inh: 105.7; HCMV UL50-53 inh: -6.4; Sa growth inh second temp: 99.8

How did O=C(Cn1ncn2nc(-c3cccs3)cc2c1=O)NCCCN1CCCCCC1 do in these assays?
GIV Gai3 FP: 99.2; Sa growth inh: 88.8; HCMV UL50-53 inh: -21.3; Sa growth inh second temp: 79.9

How did CC1CCCCN1S(=O)(=O)c1ccc(C(=O)Nc2nc3ccc4ccccc4c3s2)cc1 (stereo not drawn) do in these assays?
GIV Gai3 FP: 100.1; Sa growth inh: 111.0; Sa growth inh second temp: 88.2

How did COc1ccc(OCC(=O)Nn2cnnc2)cc1 do in these assays?
GIV Gai3 FP: 98.0; Sa growth inh: 91.2; HCMV UL50-53 inh: -21.1; Sa growth inh second temp: 82.5

How did O=C1N=c2ccccc2=C1c1sc(N2CCOCC2)nc1O do in these assays?
GIV Gai3 FP: 99.2; Sa growth inh: 94.0; Sa growth inh second temp: 88.7

What do the screens show for `CCOC(=O)C(Cc1c[nH]c2ccccc12)NC(=O)CN1C(=O)c2ccccc2C1=O` (stereo not drawn)?
GIV Gai3 FP: 111.1; HCMV UL50-53 inh: -29.1

What do the screens show for `Cc1cc(C)cc(NC(=O)c2cc(S(=O)(=O)N3CCCCC3)c[nH]2)c1`?
GIV Gai3 FP: 103.9; Sa growth inh: 97.4; Sa growth inh second temp: 83.3

How did COc1ccc(N(C(=O)Cn2nnc3ccccc32)C(C(=O)NCC2CCCO2)c2sccc2C)cc1 (stereo not drawn) do in these assays?
GIV Gai3 FP: 97.5; Sa growth inh: 93.8; HCMV UL50-53 inh: 0.3; Sa growth inh second temp: 82.8

How did CC1CCCCC1NC(=O)C1CCCN(c2nnc(-n3cccc3)s2)C1 (stereo not drawn) do in these assays?
GIV Gai3 FP: 100.2; Sa growth inh: 111.0; HCMV UL50-53 inh: -10.3; Sa growth inh second temp: 78.7

Results for COc1ccc(C(=O)COc2cc3c(C(=O)OC(C)C)c(C)oc3cc2Br)cc1 ?
GIV Gai3 FP: 98.8; HCMV UL50-53 inh: -9.8

How did O=C(C(=O)N1CCN(Cc2ccccc2)CC1)c1c[nH]c2ccccc12 do in these assays?
GIV Gai3 FP: 94.5; HCMV UL50-53 inh: -6.6

Results for Cc1nc(N2CCCC2)c2c(C(=O)Nc3cccc(Cl)c3C)c(C)oc2n1 ?
GIV Gai3 FP: 101.5; Sa growth inh: 106.0; Sa growth inh second temp: 91.4

Results for CC(=O)O/N=C(\N)c1ccc(N2CCN(c3ncccc3C(F)(F)F)CC2)nc1 ?
GIV Gai3 FP: 105.8; Sa growth inh: 88.1; HCMV UL50-53 inh: -5.4; Sa growth inh second temp: 73.2

Results for CCOC(=O)c1c(C)[nH]c(C)c1S(=O)(=O)N1CCC(C(=O)N2CCN(c3cc(C)ccc3C)CC2)CC1 ?
GIV Gai3 FP: 107.1; Sa growth inh: 115.1; Sa growth inh second temp: 88.2

How did Cc1ccc(NC(=O)CN2CCCN(Cc3cccc(Cl)c3)S2(=O)=O)c(Cl)c1 do in these assays?
GIV Gai3 FP: 98.0; HCMV UL50-53 inh: -17.2

What do the screens show for `CCCn1cnc2cc(NC(=O)c3cc(OC)c(OC)c(OC)c3)ccc21`?
GIV Gai3 FP: 108.1; Sa growth inh: 98.8; HCMV UL50-53 inh: -2.6; Sa growth inh second temp: 90.7

What do the screens show for `Nc1ccc(S(=O)(=O)NCc2ccco2)cc1`?
GIV Gai3 FP: 102.1; Sa growth inh: 84.4; HCMV UL50-53 inh: -30.1; Sa growth inh second temp: 80.3

How did Oc1ccc(-c2cnc3ccccc3n2)cc1 do in these assays?
GIV Gai3 FP: 108.6; Sa growth inh: 92.7; HCMV UL50-53 inh: -81.8; Sa growth inh second temp: 43.2

What do the screens show for `Nc1nnc(SCC(=O)Nc2cccc(F)c2)s1`?
GIV Gai3 FP: 107.9; Sa growth inh: 112.2; HCMV UL50-53 inh: 33.4; Sa growth inh second temp: 104.3

How did O=C1CN(S(=O)(=O)c2ccc3[nH]c(=O)ccc3c2)CC(=O)N1CCc1ccccc1 do in these assays?
GIV Gai3 FP: 103.9; Sa growth inh: 95.3; Sa growth inh second temp: 84.5

Results for CCOc1ccc(N2CC(NC(=O)C(=O)c3c[nH]c4ccccc34)CC2=O)cc1 (stereo not drawn) ?
GIV Gai3 FP: 95.5; Sa growth inh: 101.1; Sa growth inh second temp: 93.9

How did O=C(NC12CC3CC(CC(C3)C1)C2)c1ccccc1Cl do in these assays?
Sa growth inh: 119.2; HCMV UL50-53 inh: -25.4; Sa growth inh second temp: 80.7

Results for CC(=O)Nc1ccc(C)cc1-c1nnc(SCC(=O)Nc2cc(C)cc(C)c2)[nH]c1=O ?
GIV Gai3 FP: 98.9; HCMV UL50-53 inh: -33.8

What do the screens show for `O=C(CSC1=NCCS1)Nc1ccccc1Cl`?
GIV Gai3 FP: 99.8; Sa growth inh: 81.3; HCMV UL50-53 inh: 2.5; Sa growth inh second temp: 67.5

Results for CC1(C)CC2(CCCN(C(=S)Nc3ccccc3)C2)CCO1 (stereo not drawn) ?
GIV Gai3 FP: 90.1; Sa growth inh: 117.5; Sa growth inh second temp: 90.2

What do the screens show for `Cc1nc(N2CCOCC2)cc(N2CCN(C(=O)Nc3ccc(F)cc3)CC2)n1`?
GIV Gai3 FP: 101.5; HCMV UL50-53 inh: 8.8

Results for O=c1[nH]c(-c2ccccc2)nc2c1Cc1ccccc1O2 ?
GIV Gai3 FP: 101.6; Sa growth inh: 78.2; Sa growth inh second temp: 80.4

How did Cc1cc(=O)[nH]c(Nc2ccccc2)n1 do in these assays?
GIV Gai3 FP: 103.7; Sa growth inh: 71.5; Sa growth inh second temp: 98.7

What do the screens show for `COc1cc(C(=O)NC2CCCc3ccccc32)ccc1OCc1c(C)noc1C` (stereo not drawn)?
Sa growth inh: 96.7; HCMV UL50-53 inh: -15.3; Sa growth inh second temp: 75.6

How did O=C(CSc1nc2ccccc2o1)NC1CCCc2ccccc21 (stereo not drawn) do in these assays?
Sa growth inh: 104.0; HCMV UL50-53 inh: -29.3; Sa growth inh second temp: 84.2

Results for COCCNC(=O)c1c(NC(=O)c2cc(=O)c3cc(Cl)ccc3o2)sc2c1CCCC2 ?
GIV Gai3 FP: 104.3; Sa growth inh: 85.8; HCMV UL50-53 inh: 1.5; Sa growth inh second temp: 92.5

Results for CCn1cc(C(=O)N(C)CC(OC)OC)c(=O)c2cc(S(=O)(=O)N3CCc4ccccc4C3)ccc21 ?
GIV Gai3 FP: 102.9; Sa growth inh: 103.4; HCMV UL50-53 inh: -4.4; Sa growth inh second temp: 93.9

How did CCCCN(c1ccccc1)S(=O)(=O)c1ccc2c(c1)oc(=O)n2CC(=O)OCC do in these assays?
GIV Gai3 FP: 99.8; Sa growth inh: 112.3; HCMV UL50-53 inh: -4.3; Sa growth inh second temp: 99.9

What do the screens show for `CN(C)S(=O)(=O)c1cc(C(=O)O)c(N2CCCCC2)cc1Cl`?
Sa growth inh: 102.2; HCMV UL50-53 inh: -4.3; Sa growth inh second temp: 93.0

Results for CC(C)(C)C(=O)NCC1COc2ccccc2O1 (stereo not drawn) ?
GIV Gai3 FP: 99.5; Sa growth inh: 106.0; HCMV UL50-53 inh: -16.7; Sa growth inh second temp: 87.9

How did CCN1c2ccccc2-c2nc(SCC(=O)NCc3ccccc3)ncc2S1(=O)=O do in these assays?
GIV Gai3 FP: 95.8; Sa growth inh: 89.6; Sa growth inh second temp: 86.8

What do the screens show for `C=CCSc1n[nH]c(=O)n1C1CCCCC1`?
GIV Gai3 FP: 103.5; Sa growth inh: 104.8; HCMV UL50-53 inh: -23.2; Sa growth inh second temp: 95.0

Results for C=CCOCC(O)Cn1c(N)nc2c1c(=O)n(C)c(=O)n2C (stereo not drawn) ?
GIV Gai3 FP: 101.7; Sa growth inh: 103.7; HCMV UL50-53 inh: -7.6; Sa growth inh second temp: 91.4

How did CC1(C)CC(=O)C=C(Nc2sc3c(c2C#N)CCCC3)C1 do in these assays?
Sa growth inh: 98.7; HCMV UL50-53 inh: -22.1; Sa growth inh second temp: 82.4

Results for Cc1ccc(NC(=O)N2CCN(c3nnc(C)c4c(C)n(-c5ccc(Cl)cc5)nc34)CC2)c(C)c1 ?
GIV Gai3 FP: 103.7; Sa growth inh: 94.2; Sa growth inh second temp: 94.4

How did COc1ccc(C2CC(=O)C3=C(C2)Nc2ccccc2NC3c2ccc(N(C)C)cc2)cc1OC (stereo not drawn) do in these assays?
GIV Gai3 FP: 105.1; HCMV UL50-53 inh: -25.2

What do the screens show for `CN1C(C(=O)Nc2cccc(O)c2)=CC(c2ccco2)=NS1(=O)=O`?
GIV Gai3 FP: 109.0; Sa growth inh: 99.9; HCMV UL50-53 inh: -90.3; Sa growth inh second temp: 84.8

What do the screens show for `COc1ccc(CNC(=O)c2cnc3ccccn3c2=O)cc1`?
GIV Gai3 FP: 107.0; Sa growth inh: 105.7; HCMV UL50-53 inh: -41.2; Sa growth inh second temp: 86.7

How did O=C(COC(=O)CCCC1=NS(=O)(=O)c2ccccc2N1)Nc1ccc(Br)cc1 do in these assays?
GIV Gai3 FP: 107.7; Sa growth inh: 106.8; Sa growth inh second temp: 86.5

What do the screens show for `COc1ccc(Cl)cc1NS(=O)(=O)c1cc(N2C(=O)CCS2(=O)=O)ccc1OC`?
GIV Gai3 FP: 101.2; HCMV UL50-53 inh: -8.0

What do the screens show for `Cc1ccccc1NC(=O)CSc1c(C(C)C)cnc2c1c(=O)n(C)c(=O)n2C`?
GIV Gai3 FP: 97.9; Sa growth inh: 83.8; Sa growth inh second temp: 89.5

What do the screens show for `CCN(CC)S(=O)(=O)c1ccc(C(=O)Nc2ccc(-n3nncc3-c3ccccc3)cc2)cc1`?
GIV Gai3 FP: 103.1; Sa growth inh: 123.0; Sa growth inh second temp: 87.9

What do the screens show for `Cn1cc(C(=O)Nc2ccc(F)c(Cl)c2)c(N)n1`?
GIV Gai3 FP: 103.7; Sa growth inh: 95.0; HCMV UL50-53 inh: 2.8; Sa growth inh second temp: 95.3

What do the screens show for `CC(C)Oc1ccc(CNC(=O)c2cnc3sc(N4CCCC4)nn3c2=O)cc1`?
GIV Gai3 FP: 106.2; Sa growth inh: 124.3; Sa growth inh second temp: 89.4

At a glance, some entries already given.
How did CC1(C)CC(=O)C=C(Nc2sc3c(c2C#N)CCCC3)C1 do in these assays?
Sa growth inh: 98.7; HCMV UL50-53 inh: -22.1; Sa growth inh second temp: 82.4

Results for Cc1ccc(NC(=O)N2CCN(c3nnc(C)c4c(C)n(-c5ccc(Cl)cc5)nc34)CC2)c(C)c1 ?
GIV Gai3 FP: 103.7; Sa growth inh: 94.2; Sa growth inh second temp: 94.4

How did COc1ccc(C2CC(=O)C3=C(C2)Nc2ccccc2NC3c2ccc(N(C)C)cc2)cc1OC (stereo not drawn) do in these assays?
GIV Gai3 FP: 105.1; HCMV UL50-53 inh: -25.2

What do the screens show for `CN1C(C(=O)Nc2cccc(O)c2)=CC(c2ccco2)=NS1(=O)=O`?
GIV Gai3 FP: 109.0; Sa growth inh: 99.9; HCMV UL50-53 inh: -90.3; Sa growth inh second temp: 84.8

What do the screens show for `COc1ccc(CNC(=O)c2cnc3ccccn3c2=O)cc1`?
GIV Gai3 FP: 107.0; Sa growth inh: 105.7; HCMV UL50-53 inh: -41.2; Sa growth inh second temp: 86.7

How did O=C(COC(=O)CCCC1=NS(=O)(=O)c2ccccc2N1)Nc1ccc(Br)cc1 do in these assays?
GIV Gai3 FP: 107.7; Sa growth inh: 106.8; Sa growth inh second temp: 86.5

What do the screens show for `COc1ccc(Cl)cc1NS(=O)(=O)c1cc(N2C(=O)CCS2(=O)=O)ccc1OC`?
GIV Gai3 FP: 101.2; HCMV UL50-53 inh: -8.0

Screening results deposited in PubChem BioAssay by ICCB-Longwood Screening Facility, Harvard Medical School.
